Assay outcomes as filed in PubChem BioAssay.
HSV augment: enhancers of HSV replication in host cells, fold increase, host cell viability; AID 1956, 2009; HSV replication augmentation in cells; actives 0.005% (n = 220,000); maximum fold increase;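 active means peak rise of 1.5-fold or more in the series; tested in PC3 cells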;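 further: first round at 10 µM; read as green reporter fluorescence; hits show the peak of a series up to 25 µM; 1 = signal of infected wells without compound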
Insulin prom inh: inhibitors of insulin promoter-driven GFP, primary screen, imaging, TRM-6 cells (human fetal islet line), eGFP reporter, cell count; reporter expression induced with tamoxifen; inhibition, % at 2 µM; actives 0.9% (n = 130,000);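 active means inhibition above the mean plus 3 SD, with well images judged a real hit on visual review, cut at about 60% in these data, passing the limit was not always enough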
RGS16-Gao: modulators of RGS16 binding to Galphao, primary screen, biochemical, human proteins, multiplexed bead flow cytometry; Regulator of G-protein signaling 16 (Homo sapiens) + Guanine nucleotide-binding protein …; bead-based flow cytometry RGS16-Galphao binding, fluorescence; actives lie on both sides; binding response (% of control), % at 10 µM; actives 0.38% (n = 220,000); AID 1441, 2008;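 active means below 25% or above 175%, edge rows of some plates excepted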;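 further: Galphao activated by GDP with aluminum fluoride before binding; 100% = wells without compound and 0% = beads without RGS; some results beyond the cut were filed as inactive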
GALR2 agonist: GALR2 receptor agonists, primary screen, cell-based. Galanin receptor type 2 (Homo sapiens), O43603. GALR2-expressing cells, agonist activation read-out. activation, %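 (tested at 5 µM)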. actives 0.48% (n = 140,000). AID 803, 2007;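 active means above mean plus 3 SD of all compounds, about 5% in these data, not always enough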;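 further: 0% = vehicle buffer wells and 100% = reference agonist at full effect; tested in CHO reporter cells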
PKD1 kinase inh: inhibitors of human PKD1 kinase, biochemical, fluorescence polarization. inhibition, %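 (about 10 µM by stock and volumes)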. actives 0.056% (n = 200,000). PKD1 kinase fluorescence polarization assay. Serine/threonine-protein kinase D1 (Homo sapiens), Q15139;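 active means inhibition of 50% or more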;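 further: controls were vehicle for no effect and a reference inhibitor for full effect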
Target sequence (Q15139 whole entry, looked up): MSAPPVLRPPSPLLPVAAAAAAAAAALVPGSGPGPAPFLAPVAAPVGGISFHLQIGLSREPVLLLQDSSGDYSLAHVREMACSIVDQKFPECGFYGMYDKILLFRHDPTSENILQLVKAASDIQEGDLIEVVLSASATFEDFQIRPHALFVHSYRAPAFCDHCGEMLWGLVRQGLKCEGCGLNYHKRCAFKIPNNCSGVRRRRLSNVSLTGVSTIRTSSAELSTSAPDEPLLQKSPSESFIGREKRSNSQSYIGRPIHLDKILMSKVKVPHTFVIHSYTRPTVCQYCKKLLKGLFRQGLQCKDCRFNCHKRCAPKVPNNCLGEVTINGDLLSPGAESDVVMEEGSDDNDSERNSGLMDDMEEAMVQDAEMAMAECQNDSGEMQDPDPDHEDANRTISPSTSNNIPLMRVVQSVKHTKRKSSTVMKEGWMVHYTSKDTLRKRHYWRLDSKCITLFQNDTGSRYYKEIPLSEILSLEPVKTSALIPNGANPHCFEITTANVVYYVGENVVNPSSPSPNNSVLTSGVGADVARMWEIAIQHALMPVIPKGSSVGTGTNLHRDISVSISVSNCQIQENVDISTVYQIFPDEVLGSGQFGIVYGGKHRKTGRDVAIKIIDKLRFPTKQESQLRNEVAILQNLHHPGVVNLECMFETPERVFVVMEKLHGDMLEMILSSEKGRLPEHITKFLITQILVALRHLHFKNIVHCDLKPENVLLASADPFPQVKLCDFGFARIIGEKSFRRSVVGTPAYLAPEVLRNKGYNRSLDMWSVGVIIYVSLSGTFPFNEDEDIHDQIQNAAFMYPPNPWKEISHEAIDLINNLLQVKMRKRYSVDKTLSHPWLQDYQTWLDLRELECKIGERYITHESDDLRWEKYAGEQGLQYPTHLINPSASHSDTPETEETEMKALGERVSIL
Insulin prom inh cell count: recorded beside Insulin prom inh, whose call it bears; normalized cell count, %; measured here: cell count, toxicity; reference of the scale not given here;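 cells exposed to compound for 48 h; stained nuclei by imaging scaled within each plate; lower means fewer cells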
HSV augment primary fold: second read-out of HSV augment, no call of its own (marks repeat the call); fold increase; compound at 10 µM; measured here: primary screen fold increase 10 uM; tested in PC3 cells;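 GFP signal in the first replicate; 1 = infected wells without compound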
Starred values were filed as active, the others as inactive; i = inactive; nt = no result given.

Values run as follows: HSV augment	HSV augment primary fold	Insulin prom inh	Insulin prom inh cell count	RGS16-Gao	GALR2 agonist	PKD1 kinase inh
> CC(C)(CO)NCc1cc(Br)ccc1OCc1ccccc1
    i	0.84	-50	108	101	-3.2	-8
> CC1CCCC(C)N1/N=C/c1ccccc1OC(F)F (stereo unspecified)
    i	1.1	23	125	101	nt	-3
> C=CCN1C(=O)/C(=C/c2ccc(OC(C)=O)c(OCC)c2[N+](=O)[O-])SC1=S
    i	0.94	25	65	109	nt	-1
> CCOc1cc(/C=N/O)cc(Cl)c1OC
    i	0.97	23	81	98	-1.8	-9
> COc1ccc(Nc2cc(C)nc3ccccc23)cc1
    i	0.85	-18	130	102	-0.8	-10
> COc1ccc(CN2CCN(Cc3ccon3)CC2CCO)c(C)c1C (stereo unspecified)
    i	0.9	nt	nt	101	nt	nt
> C=C(C)C1CC=C(C)/C(=N\NC(=O)CCc2ccccc2)C1 (stereo unspecified)
    i	1	6	116	93	-0.9	-3
> CCOc1cc(CN2CCN(c3ccc(C(C)=O)cc3)CC2)ccc1OC
    i	0.78	nt	nt	101	-1.0	9
> CCOc1ccc(OCC)c(S(=O)(=O)N2CCC(C)CC2)c1
    i	1.2	0	92	98	-0.7	2
> C=CCn1c(SCC(=O)Nc2nnc(CC)s2)nnc1-c1ccco1
    i	1	8	55	102	-0.6	-6
> O=C(Nc1ccccc1)O/N=C/c1ccncc1
    i	0.96	19	97	101	-1.5	-12
> O=C(NC(=S)Nc1nc(-c2ccccc2)cs1)c1cncc(Br)c1
    i	0.98	nt	nt	99	-1.8	10
> COC(=O)CSc1nc(N2CCOCC2)c2c(c1C#N)CCCC2
    i	0.86	nt	nt	107	nt	nt
> Cc1ccccc1Nc1nnc(SCC(=O)N(C)C2CCS(=O)(=O)C2)s1 (stereo unspecified)
    i	0.96	-19	149	38	-0.3	4
> COc1ccc2oc(C(=O)c3ccccc3)c(NC(=O)CN3CCN(C)CC3)c2c1
    nt	nt	nt	nt	101	0.4	-7

Reprinted at random: two entries already listed
Values run as follows: HSV augment	HSV augment primary fold	Insulin prom inh	Insulin prom inh cell count	RGS16-Gao	GALR2 agonist	PKD1 kinase inh
> COC(=O)CSc1nc(N2CCOCC2)c2c(c1C#N)CCCC2
    i	0.86	nt	nt	107	nt	nt
> O=C(Nc1ccccc1)O/N=C/c1ccncc1
    i	0.96	19	97	101	-1.5	-12

Next section:
Values run as follows: HSV augment	HSV augment primary fold	Insulin prom inh	Insulin prom inh cell count	RGS16-Gao	GALR2 agonist	PKD1 kinase inh
> CCOC(=O)Nc1ccc2c(c1)N(C(=O)N(CC)CC)c1ccccc1CC2
    i	0.93	-56	94	139	-0.6	15
> CCOc1ccccc1OCC(=O)Nc1ccc(S(=O)(=O)N(C)C)cc1
    nt	nt	31	119	92	-1.7	5
> CCOC(=O)CNC(c1ccccc1)c1cc(Br)ccc1NC(C)=O (stereo unspecified)
    i	0.97	nt	nt	101	nt	-2
> COc1ccc(C2C3=C(CCCC3=O)Nc3nc(C(F)(F)F)nn32)cc1OC (stereo unspecified)
    i	0.99	30	137	102	-1.3	-10
> Cc1ccc(CSc2nc3[nH]ncc3c(=O)[nH]2)cc1
    nt	nt	-46	81	71	nt	0
> Cc1csc(Sc2ccc(C(=O)OCC(=O)Nc3ccc(OC(F)(F)F)cc3)cc2[N+](=O)[O-])n1
    i	0.88	nt	nt	108	0.1	4
> NC(=O)CSc1nc2c(sc3ccccc32)c(=O)n1CCCN1CCOCC1
    i	0.9	0	151	102	-0.8	-12
> Cc1ccc(NC(=O)C2CCCN2C(=O)NC2CCCCC2)cc1C (stereo unspecified)
    i	1.1	nt	nt	104	nt	0
> Cc1noc(NS(=O)(=O)c2ccc(NC(=O)c3ccc(Br)o3)cc2)c1C
    i	1	15	124	99	-0.8	-1
> CCCCCCCCSc1nnc(CSc2nc3nc(C)cc(C)n3n2)o1
    i	0.83	nt	nt	102	-1.9	9
> CCCCNC(=O)CC(C(=O)N1CCc2ccccc21)n1ccnc1 (stereo unspecified)
    i	0.88	55	159	96	-0.4	-1
> O=C(NC1CCCC1)c1cc(-c2cccs2)on1
    nt	nt	41	106	110	-0.3	-2
> COC(=O)c1c(C)[nH]c(C)c1-c1ccc(C)cc1
    i	1	44	134	190	-3.9	1
> Cc1c(NC(=O)CN2CCN(c3cccc(Cl)c3)CC2)c(=O)n(-c2ccccc2)n1C
    i	0.99	-78	103	102	nt	6
> CC(C)Cc1nc(N2CCOCC2)c(C#N)c2c1CCC2
    i	0.87	0	69	92	-2.1	12

Carrying on:
| mol | HSV augment | HSV augment primary fold | Insulin prom inh | Insulin prom inh cell count | RGS16-Gao | GALR2 agonist | PKD1 kinase inh |
| --- | --- | --- | --- | --- | --- | --- | --- |
| COc1ccc(/C=C/C2=NNC(=O)CC2)cc1 | i | 0.92 | 32 | 177 | 105 | nt | -3 |
| Cc1cc(C)n(-c2ccc(C(=O)OCC(=O)Nc3ccc([N+](=O)[O-])cc3)cc2)n1 | i | 1 | nt | nt | 103 | -0.4 | -6 |
| O=c1[nH]c(Cc2ccccc2)nc2scc(-c3ccccc3)c12 | i | 0.61 | 1 | 87 | 100 | 0.1 | -4 |
| CCOC(=O)CC1C(=O)NCCN1C(=O)COc1ccc(Br)cc1C (stereo unspecified) | i | 0.84 | -63 | 101 | 101 | -2.0 | -14 |
| Fc1cccc2sc(N3CCCCC3)nc12 | i | 1.1 | -47 | 83 | 105 | -1.5 | -41 |
| CN(CC1COc2ccccc2O1)C(=O)c1ccc(N(C)C)cc1 (stereo unspecified) | i | 0.99 | -100 | 126 | 105 | nt | -6 |
| O=C(c1cc2ccccc2o1)N1CCN=C1SCc1cccc(F)c1 | i | 0.92 | nt | nt | 113 | -1.0 | -12 |
| O=C(O)c1ccc(N2CC3CC(C2)c2cccc(=O)n2C3)c(NC(=S)Nc2ccc(Br)cc2)c1 (stereo unspecified) | i | 0.87 | -14 | 103 | 99 | nt | 0 |
| CC(=O)c1ccccc1Oc1nc(CN2CCOCC2)nc2scc(-c3cccs3)c12 | i | 0.84 | nt | nt | 100 | 0.4 | -10 |
| CC(C)C(C(=O)Nc1nccs1)N1C(=O)c2ccccc2C1=O (stereo unspecified) | i | 0.96 | nt | nt | 101 | nt | -3 |
| Cc1sc2nc(CN(Cc3cccs3)C(=O)NC3CCCCC3)[nH]c(=O)c2c1C | i | 0.93 | -19 | 96 | 113 | -0.9 | -9 |
| O=c1sc2ccccc2c(N2CCN(c3ccccc3)CC2)c1[N+](=O)[O-] | i | 0.84 | nt | nt | 94 | nt | -8 |
| Cc1ccc(-c2cc3nc(-c4ccccc4)cc(N4CCC5(CC4)OCCO5)n3n2)cc1 | i | 0.95 | -11 | 98 | 104 | 5.4 | -5 |
| COCCNC(=O)CN1CCC(NC(=O)Nc2ccccc2)CC1 | i | 1.2 | nt | nt | 204 | 0.1 | 7 |
| CC(C)(C)NC(=O)C(c1ccncc1)N(Cc1cccs1)C(=O)c1csnn1 (stereo unspecified) | i | 0.96 | nt | nt | 95 | nt | nt |
| Cc1ccc(OCC(=O)N/N=C\c2cccs2)c([N+](=O)[O-])c1 | i | 1.1 | 42 | 157 | 106 | -0.4 | -3 |
| CCCC[n+]1ccn(C2=C([O-])c3ccccc3C(=O)/C2=N\S(=O)(=O)c2ccccc2)c1 | i | 0.95 | -14 | 118 | 101 | -0.3 | -1 |
| Clc1ccc(N2CCN(c3nc4nonc4nc3N3CCSCC3)CC2)nc1 | i | 0.99 | nt | nt | 104 | nt | -5 |
| O=C(CSc1ncn(-c2ccccc2)n1)N1CCN(c2ccccc2)CC1 | i | 1 | 5 | 100 | 64 | -1.7 | -6 |
| O=C(N/N=C/C=C/c1cccc([N+](=O)[O-])c1)c1ccncc1 | i | 0.9 | nt | nt | 99 | nt | nt |
| Cc1onc(-c2ccccc2Cl)c1C(=O)N1CCOC12CCCCC2 | i | 1 | 25 | 97 | 104 | nt | 1 |
| COc1ccc(N)cc1S(=O)(=O)Nc1ccccc1Cl | i | 0.83 | nt | nt | 103 | nt | nt |
| O=C(CSc1cccc2cccnc12)Nc1cccc(S(=O)(=O)N2CCOCC2)c1 | i | 0.84 | nt | nt | 109 | nt | -7 |
| O=C(Nc1nc2ccc(C(=O)N3CCCCC3)cc2s1)C1CCCCC1 | i | 0.77 | nt | nt | 104 | nt | -2 |
| CC(C)CC(/C(O)=C(\C#N)c1nc2ccccc2[nH]1)N1C(=O)c2ccccc2C1=O (stereo unspecified) | i | 0.93 | nt | nt | 110 | -0.1 | 3 |

An excerpt of these results, with each value named:
O=C(c1cc2ccccc2o1)N1CCN=C1SCc1cccc(F)c1
  HSV augment = i
  HSV augment primary fold = 0.92
  Insulin prom inh = nt
  Insulin prom inh cell count = nt
  RGS16-Gao = 113
  GALR2 agonist = -1.0
  PKD1 kinase inh = -12

O=C(O)c1ccc(N2CC3CC(C2)c2cccc(=O)n2C3)c(NC(=S)Nc2ccc(Br)cc2)c1 (stereo unspecified)
  HSV augment = i
  HSV augment primary fold = 0.87
  Insulin prom inh = -14
  Insulin prom inh cell count = 103
  RGS16-Gao = 99
  GALR2 agonist = nt
  PKD1 kinase inh = 0

Going on with the list:
| mol | HSV augment | HSV augment primary fold | Insulin prom inh | Insulin prom inh cell count | RGS16-Gao | GALR2 agonist | PKD1 kinase inh |
| --- | --- | --- | --- | --- | --- | --- | --- |
| Cc1ccnn1CCC(=O)N1CCCC(CCC(=O)NCc2ccccc2F)C1 (stereo unspecified) | i | 0.98 | nt | nt | 109 | nt | 2 |
| O=C1C2N=NN(CC(=O)N3N=C(c4ccccc4)CC3c3ccc([N+](=O)[O-])cc3)C2C(=O)N1c1ccccc1 (stereo unspecified) | i | 0.97 | nt | nt | 99 | nt | -3 |
| CCn1ccnc1CN(C)Cc1nc(-c2ccc(C(=O)OC)cc2)no1 | i | 0.98 | nt | nt | 104 | nt | nt |
| COCCNCCCCOc1c(Cl)cc(C)cc1Br | i | 0.82 | -4 | 68 | 100 | -1.0 | 1 |
| COc1ccccc1N1CCN(CC(=O)Nc2c(C)n(C)n(-c3ccccc3)c2=O)CC1 | i | 0.82 | nt | nt | 103 | nt | -4 |
| C/C(Cl)=C/Cn1c(NCCN(C)C)nc2c1c(=O)n(C)c(=O)n2C | i | 0.88 | 7 | 154 | 94 | -0.4 | -5 |
| Clc1ccc(-c2nnc(SCc3cn4ccsc4n3)n2CC2CCCO2)cc1 (stereo unspecified) | i | 0.98 | -19 | 94 | 104 | -2.5 | -7 |
| CCC(=O)Nc1ccc2nc(C3CC3)n(Cc3ccc(C(C)(C)C)cc3)c(=O)c2c1 | i | 0.88 | nt | nt | 104 | nt | nt |
| CC(=O)NC(CC(=O)Nc1ccc(S(=O)(=O)N2CCCC2)cc1)c1ccccc1 (stereo unspecified) | i | 0.95 | nt | nt | 103 | -1.1 | -7 |
| Cc1onc(-c2c(F)cccc2Cl)c1C(=O)NNC(=O)C1CCN(Cc2ccccc2)CC1 | i | 0.92 | -7 | 130 | 98 | nt | 2 |
| NC(=O)C1CCCN(C(=O)NC2CCCCC2)C1 (stereo unspecified) | i | 1.1 | -310 | 74 | 103 | -3.2 | -3 |
| C=CCn1c(P(=O)(O)c2ccccc2)nc2ccccc21 | i | 1 | 33 | 85 | 103 | -2.1 | -6 |
| O=C(O)C1Cc2ccccc2CN1C(=O)CCl (stereo unspecified) | i | 1 | -73 | 126 | 105 | nt | 5 |
| O=C(Nc1ccc(Cl)cc1)Nc1cc(S(=O)(=O)N2CCOCC2)ccc1N1CCCC1 | i | 0.94 | 7 | 131 | 101 | -1.2 | 2 |
| CC[C@H](C)[C@H](NC(N)=O)C(=O)OCC(=O)NCc1ccc(Cl)cc1 | nt | nt | 29 | 180 | 106 | nt | 1 |
| O=S(=O)(Nc1ccc2c(c1)OCCO2)c1cccc2nsnc12 | i | 0.95 | 14 | 123 | 97 | -1.0 | -4 |
| Cc1cc2cc(CN(Cc3cccs3)C(c3nnnn3C(C)(C)C)C(C)C)c3nnnn3c2cc1C (stereo unspecified) | i | 1 | -438 | 92 | 104 | -1.4 | -4 |
| COc1ccccc1Oc1nc(-c2ccccc2)cc(C)c1S(C)(=O)=O | i | 0.87 | -10 | 84 | 100 | -1.6 | -7 |
| Cc1cc(S(=O)(=O)Nc2ccc(C(=O)N3CCN(C(=O)c4ccco4)CC3)cc2)ccc1F | i | 1.1 | -4 | 105 | 98 | -0.8 | -5 |
| CC(/C=C/c1ccco1)=N\NC(=O)COc1ccc(C)c(C)c1 | i | 0.97 | nt | nt | 95 | nt | -7 |
